Source: PubChem (Southern Research Institute)
Vif A3G: HIV-1 Vif–A3G interaction blockers – biochemical, TR-FRET, GST-Vif 1-94, biotin-A3G peptide, dose response retest, primary screen (AID 1117319); hit rate 0.57% among 260,000; TR-FRET GST-Vif / biotin-A3G peptide binding; higher % means a stronger effect; test concentration not given here; strong numbers were not always called active; inhibition, %; hits with a dose series show IC50 in µM;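 active means above the screen mean plus three standard deviations and confirmed in dose response; inconclusive means results disagree or hit not tested in dose response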;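 further: Vif residues 1-94 fused to GST binding biotinylated APOBEC3G peptide 110-148; 0% = full assay without inhibitor and 100% = GST in place of GST-Vif; retest series ran down from 100 µM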
The depositor's hits bear a star; ? = inconclusive. These rows are one share of the data, so the mix of outcomes need not match the whole.

# | Vif A3G | SMILES
1 | 1% | C#CCOCCOCCOCCNc1nc(N2CCN(C(=O)[C@H](CCCCN)n3cc(C(N)CO)nn3)CC2)nc(N2CCN(C(=O)[C@H](CCC(=O)O)n3cc(C(N)Cc4ccc(O)cc4)nn3)CC2)n1 (stereo partly specified)
2 | 14% | COc1cccc(-c2cc(=O)c3cc(NC(=O)c4ccc(N(C)C)cc4)ccc3[nH]2)c1
3 | 28% | COC(=O)C/C=C/[C@@H](C)[C@@H](/C=N/OC[C@H]1O[C@H](c2ccccc2)C=C[C@@H]1Oc1ccc(OC)cc1)NS(=O)(=O)c1ccc(C)cc1
4 | -9% | CCOC(=O)c1c2ccc(OCC(=O)N/N=C/c3ccccc3C(F)(F)F)cc2n2ccccc12
5 | 4.1µM* | O=[N+]([O-])c1cc(CN2CCOCC2)c2cccnc2c1O
6 | -4% | COC(=O)[C@H](Cc1ccccc1)NC(=O)O[C@@H]1C(=O)c2cc(Br)ccc2O[C@H]1c1cccc(OC)c1
7 | -2% | Cc1nnc(NC(=O)c2oc3cc(C)c(C)cc3c2C)s1
8 | 28% | c1ccc2c(c1)nc(N1CCN(C3CCCCC3)CC1)c1nnnn12
9 | -2% | CN(C)CCCNc1c(C(=O)O)cnc2c1cnn2C
10 | 5% | CCOC(=O)c1c(NC(=O)c2noc3c2CCCC3)sc(C)c1C
11 | 29% | CCN1CCN(C(=O)N[C@@H](C(=O)N[C@@H]2C(=O)N3[C@@H]2SC(C)(C)[C@@H]3C(=O)O)c2ccccc2)C(=O)C1=O
12 | -3% | CCCN1C(=O)/C(=C/c2c(N3CCNC(=O)C3CC(=O)OC)nc3c(C)cccn3c2=O)SC1=S (stereo unspecified)
13 | -4% | Cc1cc(C)c2nc3s/c(=C/c4ccccc4)c(=O)n3c2c1
14 | -5% | COC(=O)[C@@]1(Cc2ccc(OC)cc2)[C@H]2c3cc(C(=O)N(C)C)n(Cc4ccc(OC(F)(F)F)cc4)c3C[C@H]2CN1C(=O)c1ccccc1
15 | ? | O=C1CC(=O)c2c1cccc2[N+](=O)[O-]
16 | -5% | COC(=O)C/C=C/[C@@H](C)[C@@H](/C=N/OC[C@H]1O[C@H](c2ccccc2)C=C[C@@H]1Oc1ccc(OC)cc1)OC
17 | 0% | O=c1c2ccccc2nc(SCc2cc(=O)n3ccsc3n2)n1CCCO
18 | 6% | COCCNc1nnnc2c1sc1nc(N3CCOCC3)c3c(c12)CCCC3
19 | 11% | CC(/C(O)=C(\C#N)c1nc2ccccc2n1C)N1C(=O)c2ccccc2C1=O (stereo unspecified)
20 | -18% | Cc1ccc(C)c(CSc2nc(-c3ccco3)nc3c2c(=O)n(C)c(=O)n3C)c1
21 | 20% | N#C/C(C(=O)c1ccccc1)=C1/SC=C(N)N1c1ccccc1
22 | -3% | CCOC(=O)C1=C(C)NC2=C(C(=O)CCC2)C1c1ccsc1 (stereo unspecified)
23 | -10% | CCCCn1c(SCc2cc(=O)[nH]c3ccccc23)nc2c1c(=O)n(C)c(=O)n2C
24 | -1% | Cc1ccc(NC(=O)COC(=O)c2ccc3c(c2)NC(=O)C2CCCN32)cc1C (stereo unspecified)
25 | 7% | C[C@@H]1NC(=O)c2cc([N+](=O)[O-])cc(I)c2OCC[C@@H](C(N)=O)NC(=O)[C@H](CCC(=O)O)NC1=O

Some of the entries above in a different format:
nr	mol	Vif A3G
15	O=C1CC(=O)c2c1cccc2[N+](=O)[O-]	?
16	COC(=O)C/C=C/[C@@H](C)[C@@H](/C=N/OC[C@H]1O[C@H](c2ccccc2)C=C[C@@H]1Oc1ccc(OC)cc1)OC	-5%
17	O=c1c2ccccc2nc(SCc2cc(=O)n3ccsc3n2)n1CCCO	0%
18	COCCNc1nnnc2c1sc1nc(N3CCOCC3)c3c(c12)CCCC3	6%

Carrying on:
# | Vif A3G | SMILES
26 | 3% | O=C(Nc1ccc(Cl)c([N+](=O)[O-])c1)Nc1nc2ccccc2s1
27 | -2% | O=P(O)(CN1CCCCC1)CN1CCCCC1
28 | -4% | CCOC(=O)c1[nH]c2ccc(Br)cc2c1NC(=O)CCN1CCCCC1
29 | 15% | COC(=O)[C@H](Cc1ccccc1)NC(=O)O[C@H]1C(=O)c2ccc(OC)cc2O[C@@H]1c1ccc2c(c1)OCO2
30 | -11% | CCCCCCN(C(=O)CCCCCN1C(=O)NC(c2ccc(-c3ccccc3)cc2)C(C(=O)OCc2ccccc2)=C1C)C(C(=O)NCCCC)c1ccc(O)c(C(=O)OC)c1 (stereo unspecified)
31 | 5% | Cc1cccc(NC(=O)c2snc3c(=O)[nH]cnc23)c1
32 | -2% | O=c1[nH][nH]c(=S)n1-c1ccccc1C(F)(F)F
33 | -2% | O=C(c1cc2c(=O)n3ccccc3nc2s1)N1CCc2ccccc2C1
34 | 1% | COc1ccc(S(=O)(=O)Cc2ccc(C(=O)NCc3ccc(F)cc3)o2)cc1
35 | 1% | Cc1ccc(C(=O)n2c(=S)nc3ccccn32)cc1
36 | 19% | O=C(NCc1ccc2[nH]c3c(c2c1)CCCC3)N1CCOCC1
37 | 12% | C/C=C/C(=O)Nc1cccc(C2=NOC3(C2)C[C@H](C(N)=O)N(C(=O)c2ccccc2C(=O)c2ccccc2)C3)c1 (stereo partly specified)
38 | -4% | CCOC(=O)N1CCC(NC(=O)Cn2c3ccccc3c3cn[nH]c(=O)c32)CC1
39 | -38% | CCOC(=O)CC1C(=O)NCCN1c1nc2c(C)cccn2c(=O)c1/C=C1\SC(=S)N(CC(C)C)C1=O (stereo unspecified)
40 | -1% | Cc1nnc(Sc2nc3c(c(=O)[nH]c(=O)n3C)n2CCCc2ccccc2)s1
41 | -3% | CCc1nc(SCC(=O)N2CCN(c3ccccc3)CC2)c2c(=O)n(C)c(=O)n(C)c2n1
42 | -5% | Cc1cc(N=Cc2c(O)n(-c3ccc(C)c(C)c3)c(=O)c3ccccc23)no1
43 | 5% | CC(C)CCOc1ccc(C(=O)CCNC(C)C(=O)O)cc1 (stereo unspecified)
44 | 31% | COC(=O)C1(C)Cc2cc(OC(C)=O)c(OC(C)=O)cc2N1 (stereo unspecified)
45 | ? | Cc1nccc2[nH]c(=O)c(C(=O)NCCCN(C)C3CCCCC3)cc12
46 | -9% | COc1cc(NS(=O)(=O)c2ccc(N)cc2)ncn1
47 | -4% | Cc1ccnc2ccc(P(=O)(c3ccccc3)c3ccccc3)cc12
48 | 6% | O=C(CCCN1C(=O)/C(=C/c2cccs2)SC1=S)Nc1ccc(O)c(C(=O)O)c1
49 | -2% | CCCc1nc(N2CCOCC2)c2sc(=S)n(-c3ccccc3)c2n1
50 | -3% | COC(=O)c1cc2oc(C)cc2n1CC(=O)Nc1ccc(OC)c(OC)c1OC

A few values from above:
In Vif A3G, CCOC(=O)N1CCC(NC(=O)Cn2c3ccccc3c3cn[nH]c(=O)c32)CC1 is entered as -4%
In Vif A3G, COc1ccc(S(=O)(=O)Cc2ccc(C(=O)NCc3ccc(F)cc3)o2)cc1 is entered as 1%
In Vif A3G, O=P(O)(CN1CCCCC1)CN1CCCCC1 is entered as -2%
In Vif A3G, COC(=O)c1cc2oc(C)cc2n1CC(=O)Nc1ccc(OC)c(OC)c1OC is entered as -3%
In Vif A3G, CCOC(=O)CC1C(=O)NCCN1c1nc2c(C)cccn2c(=O)c1/C=C1\SC(=S)N(CC(C)C)C1=O (stereo unspecified) is entered as -38%
In Vif A3G, Cc1nnc(Sc2nc3c(c(=O)[nH]c(=O)n3C)n2CCCc2ccccc2)s1 is entered as -1%

The listing picks up, repeating the two entries before the break.
# | Vif A3G | SMILES
49 | -2% | CCCc1nc(N2CCOCC2)c2sc(=S)n(-c3ccccc3)c2n1
50 | -3% | COC(=O)c1cc2oc(C)cc2n1CC(=O)Nc1ccc(OC)c(OC)c1OC
51 | -4% | Cc1c2c(n3c(nc4ccccc43)c1C#N)N(c1ccccc1)CC2
52 | 3% | COc1cccc(C2=CC(c3ccccc3)n3ncnc3N2)c1 (stereo unspecified)
53 | -1% | O=C(Nc1ccc(N2CCOCC2)c(C(=O)O)c1)c1ccco1
54 | -4% | Cc1ccc(N2C(=O)N(CC(=O)C(C)(C)C)c3ccccc3S2(=O)=O)cc1
55 | 1% | CCOC(=O)c1ccccc1NC(=O)CN(c1ccc(OCC)cc1)S(C)(=O)=O
56 | ? | C=CCN1C(=O)/C(=C2/C(=O)N(CC(=O)O)c3ccccc32)S/C1=N/c1nccs1
57 | 1% | Cc1sc2nc3c(C(=O)N4CCN(c5ccccn5)CC4)cccn3c(=O)c2c1C
58 | -2% | O=C(c1cnc2n(c1=O)CCS2)N1CCN(c2ccccc2Cl)CC1
59 | 23% | Cn1c(=O)oc2cc(S(=O)(=O)N3CCCC(C(=O)N4CCn5c4nc4ccccc45)C3)ccc21 (stereo unspecified)
60 | 30% | O=C(/C=C/c1cccc([N+](=O)[O-])c1)NC(=S)Nc1ccccc1C(=O)O
61 | ? | Cc1ccc(C)c(SCC(=O)Nc2cc(C)nn2-c2ccc(F)cc2)c1
62 | 0.86µM* | CCCCCC#CCC#CCC#CCC#CCCCC(=O)O
63 | 17% | CCc1nc(SCC(=O)Nc2sc(C)c(C)c2C(=O)OC)c2ccccc2n1
64 | -13% | Cc1ccc(C)c(CSc2nc3ccncc3n2CC(=O)Nc2ccc(C)c(C)c2)c1
65 | 2% | Cn1ccnc1SCC(=O)Nc1ccc2c(c1)OC(F)(F)O2
66 | ? | CC(C)[C@@H]1NC(=O)c2cc([N+](=O)[O-])cc(F)c2NCCC[C@@H](C(N)=O)NC(=O)[C@H](CO)NC1=O
67 | 18% | Clc1cccc(CN2COc3c(cc(Cl)c4cccnc34)C2)c1
68 | ? | O=C1c2ccccc2-c2onc3c(Oc4ccccc4)cc(O)c1c23
69 | -8% | CCN(C(=O)c1ccc2c(Cl)c3c(nc2c1)CCC3)c1cccc(C)c1
70 | 22% | Cc1ccc(S(=O)(=O)N2CCCCC2)cc1C(=O)Nc1ncn[nH]1
71 | 13% | CCOC(=O)c1cc2c(=O)n3cccc(C)c3nc2n(C)c1=N
72 | ? | Cc1ccc(Cn2ccc(NC(=O)c3cc4nc5c(c(C(F)(F)F)n4n3)CCc3ccccc3-5)n2)cc1
73 | 20% | NC(=O)CC[C@@H]1NC(=O)[C@H](CO)NC(=O)c2cc([N+](=O)[O-])cc(I)c2NCCCC[C@@H](C(N)=O)NC(=O)[C@H](Cc2ccc(O)cc2)NC1=O
74 | -7% | CCC(c1nnnn1C(C)(C)C)N(CCOC)Cc1cc2cccc(C)c2n2nnnc12 (stereo unspecified)
75 | 0% | O=c1[nH]c2ccccc2nc1C(Cl)c1ccccc1 (stereo unspecified)
76 | -4% | NC(=O)C1CCN(C(=O)c2ccc3c(=O)n(Cc4ccco4)c(SCC(=O)c4ccc(F)cc4)nc3c2)CC1
77 | 32% | Cc1ccc(Nc2nc(C3CC3)cs2)cc1
78 | 23% | O=c1oc2c(Cl)cc(Cl)cc2cc1-c1nnc(Nc2ccccc2F)s1
79 | 8% | CCOC(=O)C(Sc1ncnc2c1sc1nc(N3CCOCC3)c3c(c12)CCCC3)c1ccccc1 (stereo unspecified)
80 | 5% | Cc1ccc(S(=O)(=O)N2CCC(C(=O)Nc3nnc(C45CC6CC(CC(C6)C4)C5)s3)CC2)cc1
81 | 26% | CC[C@@H]1CC=C[C@H]2[C@H]1C(=O)N(Cc1ccccc1)[C@H]2c1cc(C)ccc1F
82 | -4% | CCN(CC)C1CC(=O)N(c2cccc(C)c2)C1=O (stereo unspecified)
83 | 1% | CCN1C(=O)/C(=C2\SC(=S)N(CC3CCCO3)C2=O)c2ccccc21 (stereo unspecified)
84 | ? | O=c1c2ccccc2nc2n1CC/C2=C\c1ccccc1[N+](=O)[O-]
85 | -3% | COc1cc(-n2c(C)nc3cc(C(=O)NCCN4CCOCC4)ccc32)cc(OC)c1OC
86 | 32% | CCOc1[nH]n(-c2ccc(Cl)cc2)c(=O)c1C=Nc1ccc(C)cc1
87 | -29% | c1ccc(Cn2c(-c3cccs3)nc3nc4ccccc4nc32)cc1
88 | 3% | Cc1ccccc1C(=O)Nn1c(C)ccc1C
89 | -3% | CC1=C(C(=O)Nc2ccccc2)C(c2sccc2C)n2nnnc2N1 (stereo unspecified)
90 | ? | Nc1sc(-c2ccccc2)cc1C(=O)O

Arranged by count of non-hydrogen atoms (smallest number first): some entries from above
# | Vif A3G | SMILES
90 | ? | Nc1sc(-c2ccccc2)cc1C(=O)O
88 | 3% | Cc1ccccc1C(=O)Nn1c(C)ccc1C
82 | -4% | CCN(CC)C1CC(=O)N(c2cccc(C)c2)C1=O (stereo unspecified)
87 | -29% | c1ccc(Cn2c(-c3cccs3)nc3nc4ccccc4nc32)cc1
85 | -3% | COc1cc(-n2c(C)nc3cc(C(=O)NCCN4CCOCC4)ccc32)cc(OC)c1OC
